Screening data deposited in PubChem by National Center for Advancing Translational Sciences (NCATS).
Vaccinia mCherry – vaccinia inhibition (mCherry reporter); Vaccinia virus mCherry reporter infection, fluorescence; about a quarter of the inactives have no number; Potency, µM (highest dose often 36.5 µM), for the others: at the highest dose activity change, negative = inhibition, usual class: inhibitors; hit rate 0.63% among 310,000; AID 720579; active = well fitted inhibition curve with a large enough effect; inconclusive = small, poorly fitted or top-dose-only effect; inactive = no such curve, though single readings can be large or run the other way; tested in A549 cells; further: nearly all actives have a fitted effect of over 35% in size; inactives centre near -10
VACV Venus inh – vaccinia inhibition (Venus reporter) | hit rate 0.46% among 330,000 | Potency, µM (top dose mostly 36.5 µM), without a hit: at the highest dose activity change, negative = inhibition, most hits filed as inhibitors | Vaccinia virus Venus reporter expression, fluorescence; active means well fitted inhibition curve with a large enough effect; inconclusive means small, poorly fitted or top-dose-only effect; inactive means no such curve, though single readings can be large or run the other way; tested in A549 cells; further: nearly all actives have a fitted effect of over 30% in size; inactives centre near -10
An asterisk follows results filed as active; i = inactive; u = inconclusive; x = no result given; & = joins results of further samples; [ ] = another dose, or the depositor's remark. On the % scale 0 is the no-effect control and ±100 the full control effect; potency means the concentration at half of the fitted maximal effect.

SMILES | Vaccinia mCherry | VACV Venus inh
O=C(NCCc1ccccc1)c1ccc(Cn2c(SCc3cccc(F)c3)nc3cccnc32)cc1 | -23% | u
COc1ccc(C(=O)Cc2ccccc2)cc1OC | -6% | -6%
O=C1CCCN2N=C(SCC(=O)N3N=C(c4ccc(Br)cc4)CC3c3ccc(F)cc3)SC2=N1 (stereo not drawn) | i | -16%
CCOC(=O)c1c(S(=O)(=O)N2CCCC(C(=O)Nc3cccc(C#N)c3)C2)c(C)n(C)c1C (stereo not drawn) | -12% | -9%
COc1ccc(C(C#N)=Cc2cccc(OC)c2OC)cc1 | -19% | u
Cc1nc(SCC(=O)N2CCOCC2)c2c(C)c(C)sc2n1 | -10% | -7%
O=C(NCc1ccc(F)cc1)C1CC(=O)N(Cc2ccco2)C1 (stereo not drawn) | i | -2%
FC(F)C(F)(F)C1=CC(c2ccccc2)=NCCN1 | x | -7%
CC(C)CNC(=O)COC(=O)c1c2c(nc3ccccc13)/C(=C/c1cccs1)CC2 | u | u
Cc1ccc(NC(=S)c2nc3ccccc3[nH]2)c(C)c1 | u | -28%
COC(=O)Nc1ccc(C)c2nsnc12 | i | -15%
COc1ccc(/C=N/NC(=O)c2cccnc2)cc1CSc1nc2ccccc2s1 | u | -27%
O=C(CC12CC3CC(CC(C3)C1)C2)NCc1ccc(F)cc1 | -24% | -10%
Cc1cc(C)cc(NC(=O)[C@@H](NC(=O)c2ccco2)C(C)C)c1 | -1% | -7%
O=C(CNC(=O)c1ccc(Br)o1)NCc1ccc(Cl)cc1Cl | -15% | -17%
COc1ccc(CN2C[C@H]3CCCN3c3cc(Br)ccc3S2(=O)=O)cc1 | u | -25%
COc1cc(S(C)=O)ccc1-c1nc2ncccc2[nH]1 (stereo not drawn) | i | -8%&-8%
O=C(NNC(=O)c1cccc(S(=O)(=O)N2CCc3ccccc32)c1)c1ccccc1 | -29% | u
COC(=O)C1=C(c2ccc(OCc3ccccc3)cc2)C[C@@H]2CC[C@H]1N2C(=O)NCc1ccccc1OC | -25% | u
O=C(N/N=C\c1ccccc1)c1sccc1-n1cccc1 | x | -12%

A different layout for 4 compounds above.
Cc1nc(SCC(=O)N2CCOCC2)c2c(C)c(C)sc2n1
  Vaccinia mCherry: -10%; VACV Venus inh: -7%

O=C(NCc1ccc(F)cc1)C1CC(=O)N(Cc2ccco2)C1 (stereo not drawn)
  Vaccinia mCherry: i; VACV Venus inh: -2%

FC(F)C(F)(F)C1=CC(c2ccccc2)=NCCN1
  Vaccinia mCherry: x; VACV Venus inh: -7%

CC(C)CNC(=O)COC(=O)c1c2c(nc3ccccc13)/C(=C/c1cccs1)CC2
  Vaccinia mCherry: u; VACV Venus inh: u

Remaining list, next part.
SMILES | Vaccinia mCherry | VACV Venus inh
O=C(/C(=N/N=C/c1ccc(O)c(O)c1)c1ccccc1)c1ccccc1 | u | u
N#CC1=C(N)Oc2cc(O)ccc2C1c1ccc2c(c1)OCO2 (stereo not drawn) | u | -12%
O=S(=O)(c1ccc(Cl)cc1)c1nnn2c1nc(NCc1ccccc1)c1sccc12 | -24% | -28%
CC1C/C(=N\NC(=O)c2cccnc2)CC(C)(C)C1 (stereo not drawn) | -1% | -11%
CC1CN(S(=O)(=O)c2ccccc2)C(C)N1C(=O)N1CCOCC1 (stereo not drawn) | -11% | -1%
O=C(Cc1cccs1)N(c1ccc(Br)cc1)C1C=CS(=O)(=O)C1 (stereo not drawn) | -5% | -3%
CCOC(=O)C1(CCCc2ccccc2)CCN(C(=O)Cc2nonc2C)CC1 | i | -15%
CC1CC1C(=O)OCC(=O)NC(=O)NCc1ccco1 (stereo not drawn) | -3% | 8%
O=C(O)c1ccc2c(c1)C(=O)N(c1ccc([N+](=O)[O-])cn1)C2=O | i | 0%
COc1cccc(Cn2c(=O)cc(C)c3c(C)nn(C)c32)c1 | -19% | -6%
COc1cc(NC(=O)c2ccc3c(=O)n(Cc4ccco4)c(=S)[nH]c3c2)cc(OC)c1OC | i | 2%
CC1CC(C)CN(S(=O)(=O)c2ccc(C(=O)NCc3ccco3)cc2)C1 (stereo not drawn) | i | -10%
CCOC(=O)c1c(-c2ccc(C)cc2C)csc1NC(=O)CSc1nnnn1C | u | -9%
Cc1occc1-c1nnc(SCC(=O)N(C)c2ccccc2)o1 | -14% | 3%
CCOC(=O)N1CCN(C(=O)c2cccc(S(=O)(=O)Nc3ccc(OC)cc3)c2)CC1 | -5% | 2%
COC(=O)CNS(=O)(=O)c1ccc(OC)cc1 | -10% | -11%
CC(CNC(=O)c1ccc(OC2CCN(Cc3ccccn3)CC2)cc1)Oc1cccnc1 (stereo not drawn) | -12% | -4%
NC(=O)c1ccc(NC(=O)COC(=O)C2(c3cccc(F)c3)CCCC2)cc1 | -6% | -21%
COc1ccc(NC(=O)CSCC(=O)Nc2ccc(C)c(S(=O)(=O)N3CCCCCC3)c2)cc1 | 0% | -17%
COC(=O)c1ccc2c(C)c(C(C)(C)O)[nH]c2c1 | i | -13%

Six compounds picked at random from the list so far, as already listed:
SMILES | Vaccinia mCherry | VACV Venus inh
Cc1occc1-c1nnc(SCC(=O)N(C)c2ccccc2)o1 | -14% | 3%
COc1cc(NC(=O)c2ccc3c(=O)n(Cc4ccco4)c(=S)[nH]c3c2)cc(OC)c1OC | i | 2%
CC1CC1C(=O)OCC(=O)NC(=O)NCc1ccco1 (stereo not drawn) | -3% | 8%
CC1CC(C)CN(S(=O)(=O)c2ccc(C(=O)NCc3ccco3)cc2)C1 (stereo not drawn) | i | -10%
O=C(Cc1cccs1)N(c1ccc(Br)cc1)C1C=CS(=O)(=O)C1 (stereo not drawn) | -5% | -3%
CCOC(=O)c1c(-c2ccc(C)cc2C)csc1NC(=O)CSc1nnnn1C | u | -9%

Following part
SMILES | Vaccinia mCherry | VACV Venus inh
Cc1cccc(C(=Cc2ccc([N+](=O)[O-])cc2)C(=O)O)c1 | -15% | -9%
C[C@H](CO)N1C[C@H](C)[C@@H](CN(C)S(=O)(=O)c2ccccc2)Oc2c(NC(=O)Nc3ccccc3)cccc2C1=O | i | -13%
COc1ccc(F)cc1S(=O)(=O)NCC(c1ccco1)S(=O)(=O)c1cccs1 (stereo not drawn) | -11% | -12%
COc1ccc(NC(=O)CSc2ncnc3c2nnn3-c2ccc(F)cc2)c(OC)c1 | -27% | -12%
Cc1ccc(N(CC(=O)NCCSCc2ccco2)S(=O)(=O)c2ccc(C)cc2)cc1 | u | -18%
O=C(Cn1ncc2c1-c1ccccc1OC2)N(Cc1ccco1)C1CCCCC1 | 1% | 3%
CC1=C(C(=O)NCCN2CCOCC2)C2(CCC(C)CC2)OC1=O (stereo not drawn) | 21% | 11%
COC(=O)c1ccc(NC(=O)Nc2ccc(OC)c(OC)c2)cc1 | u | -18%
CCOc1ccc(C2C3=C(CC(C)(C)CC3=O)N(CCCOC)C3=C2C(=O)CC(C)(C)C3)cc1OC | i | -15%
CCOC(=O)C1C(OC(=O)c2ccccc2)CC2CCC1N2C (stereo not drawn) | -7% | -19%
CN(C)c1ccc(C(=O)OCC(=O)N2CCCC2)cc1 | 27% | -3%
COc1ccc(-c2cc(=O)oc3cc(OCC(=O)N[C@@H](Cc4c[nH]c5ccccc45)C(=O)O)ccc23)cc1 | -5% | 2%
CCN1C(N(C)C)=NC[C@@H]1Cc1ccccc1 | i | -2%
Cc1ccc(S(=O)(=O)Nc2cc(C)nn2-c2ccccc2)cc1 | -12% | -8%
O=C(NN=Cc1ccc2c(c1)OCO2)c1ccccc1 | u | -23%
FC(F)(F)c1ccc(-c2cccc3c2C2CC3CCN2Cc2ccc3c(c2)OCO3)cc1 (stereo not drawn) | i | 0%
Cc1cccc(NC(=S)NNC(=O)c2csc(C)c2)c1 | -1% | -16%
O=C1C(=O)N(CCN2CCOCC2)C(c2ccccc2F)/C1=C(\O)c1ccc(S(=O)(=O)N2CCOCC2)cc1 (stereo not drawn) | -15% | -4%
Cn1cccc1/C=C1\CCc2ccccc2C1=O | u | -12%
CCC(CO)N=CC1=C(O)CC(C)(C)CC1=O (stereo not drawn) | x | -13%
COc1ccccc1/C=C(\NC(=O)c1cccc(C)c1)C(=O)Nc1ccccn1 | i | -5%
COc1ccc(-c2nnc(NC(=O)CS(=O)(=O)c3ccc(F)cc3)o2)c(OC)c1 | -7% | -3%
O=C(COC(=O)C1=COCCO1)Nc1ccccc1Oc1ccccc1 | -15% | -1%
CC1CCCCC1NC(=O)c1cc(S(=O)(=O)N2CCOCC2)ccc1Cl (stereo not drawn) | i | 0%
O=C1c2cccc3cccc(c23)C(=O)N1CCCCCc1n[nH]c(=S)o1 | -4% | -5%
COc1ccc2[nH]c(=O)c3c(c2c1)OC(C)(C)C=C3 | 13µM* | 11µM*
CC(NC(=O)C(=O)Nc1nccs1)c1ccccc1 (stereo not drawn) | -14% | -12%
O=C(c1cc(-c2cccnc2)nc2ccccc12)N1CCCc2ccccc21 | u | -30%
O=C(Nc1ccc(S(=O)(=O)N2CCOCC2)cc1)c1ccco1 | i | -9%
Cn1cccc1CC(=O)N/N=C\c1c2ccccc2cc2ccccc12 | -4% | -17%
CC(NS(=O)(=O)c1ccc2c(c1)OCCCO2)C(=O)O (stereo not drawn) | -12% | -10%
COc1ccccc1C(=O)Nc1c(C(=O)NC(C)(C)C)oc2ccccc12 | 12% | -10%
CCOC(=O)c1nc(-c2ccc(OC)c(OC)c2)no1 | i | -4%
Cc1ccc(NC(=S)Nc2ccccn2)c(C)c1 | i | -16%
CC(=O)C1=C(O)C(=O)N(c2nccs2)C1c1ccccc1 (stereo not drawn) | x | -2%
O=C(NCc1ccncc1)Nc1ccc2c(c1)OCO2 | -5% | -1%
COc1cc(OC)c(NC(=O)C(C)n2nc(-c3ccc(C)cc3)c3c(c2=O)CCCC3)cc1Cl (stereo not drawn) | -29% | -28%
O=C(NCC(=O)N1CCC(Cc2ccccc2)CC1)c1ccc(Cl)cc1 | -3% | -13%
CCOc1ccc(S(=O)(=O)NCCC(=O)NCCOc2ccccc2OC)cc1 | -19% | -16%
CCOc1ccc(-c2cc(NC(=O)Nc3cccc(C(C)=O)c3)c(C(=O)OC)s2)cc1 | -22% | -7%
CCCCn1c(N)c(N(CC)C(=O)c2cccc(OC)c2)c(=O)[nH]c1=O | -2% | -19%
Cc1cccc(OCC(=O)Nc2ccc(S(=O)(=O)N3CCCC3)cc2)c1 | -24% | -18%
COc1ccc(C/C(O)=C(\C#N)c2nc3ccccc3s2)cc1 | -18% | -11%
CCCCCCCCN1CC(Cc2cc3ccccc3c3ccccc23)N(c2ccccc2)c2ccccc2C1=O (stereo not drawn) | -24% | 0%
COCCn1c(C)cc(O)c(C(c2ccccc2OC)N2CCCCC2)c1=O (stereo not drawn) | -10% | -6%
Cc1ccccc1-c1nc(NC(C)C)nc2ccsc12 | -2% | 1%
Cc1ccc(-c2c3c(=O)n(C)c(=O)n(C)c3cn2Cc2cccnc2)cc1 | i | -18%
O=C(O)c1ccc(/C=N/Nc2ccc(F)cc2F)cc1 | 0% | -7%
Nn1c(SCC(=O)NC2CCCCC2)nnc1-c1ccccc1 | i | -1%
Cn1cc([N+](=O)[O-])c(C(=O)Nc2ccc3nc(-c4ccccc4)[nH]c3c2)n1 | u | u
CCC(CO)Oc1cc(NCc2ccccc2Cl)c2ncn(C(C)C)c2c1 (stereo not drawn) | -16% | -25%
Cc1nn(C)c(Cl)c1C(=O)NCC(=O)O | i | 0%
S=C(NC1CCCCC1)NC1CC2CCC(C1)N2Cc1ccccc1 (stereo not drawn) | -27% | -15%
O=C(CCNS(=O)(=O)c1cccc2nsnc12)NCc1ccco1 | -2% | -4%
Cc1ccc(N2CC(C(=O)Nc3cc(C(F)(F)F)ccc3N3CCCC3)CC2=O)cc1 (stereo not drawn) | i | -17%
Cc1ccc2[nH]c(=O)c(CN(C)C(=O)c3ccccn3)cc2c1 | x | -5%
O=C(Nc1ccc(Cl)cc1Cl)c1cc(S(=O)(=O)N2CCc3ccccc32)ccc1F | -16% | -16%
CC(C)(C)c1csc(Sc2ccc([N+](=O)[O-])cn2)n1 | -26% | -9%
COc1cc(NC(=O)CN2CCCCC2C)c(C)cc1[N+](=O)[O-] (stereo not drawn) | i | -10%
COc1ccccc1CN1CCNC(=O)C1CC(=O)N(C)C1CCOCC1 (stereo not drawn) | i | -16%

Going on with the list:
SMILES | Vaccinia mCherry | VACV Venus inh
O=C(CCCCCN1C(=O)c2ccccc2C1=O)Nc1ccc2c(c1)OCCO2 | -7% | -24%
COCCCN1C(=O)C(CC(=O)NCc2ccco2)CC(C(=O)N2CCOCC2)=C1C (stereo not drawn) | -14% | -17%
Cc1cc(NC(c2cccnc2)c2ccc3cccnc3c2O)no1 (stereo not drawn) | x | 16µM*
Cc1ccccc1OCC(=O)Nc1nnc(S(=O)(=O)N2CCCC2)s1 | -2% | -13%&-8%
COc1ccc2c(c1)c(CCN)c(C)n2Cc1ccccc1 | -14%[7.34 µM] | -7%[7.34 µM]
Cc1nn(-c2ccccc2)c2sc(C(=O)N3CCCCC3)cc12 | x | -22%
CCOC(=O)[C@]12CCCC=C1N(CCc1ccc(OC)c(OC)c1)C(=O)[C@H](CC(=O)NCCCN1CCCC1=O)C2 | -13% | -4%
O=C(CN1C(=O)CSc2ccc(S(=O)(=O)N3CCOCC3)cc21)NCc1cccnc1 | -12% | -10%
CN1CCC(=NNC(=O)CN(c2ccccc2)S(=O)(=O)c2ccccc2)CC1 | -14% | -7%
CCCC(=O)Nc1ccc(Cc2ccc(NC(=O)CCC)c(C(=O)O)c2)cc1C(=O)O | -6% | -12%
